Bm FixLJ act: activators of Burkholderia fixLJ two-component system, primary screen, B. multivorans, GFP reporter | B. multivorans fixK-promoter GFP reporter, 18 h; hits give high values | z-score (concentration not given with the values) | AID 1918990, 2023 | 29,000 compounds, 0.3% hits;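 active means replicate mean overnight rise in green fluorescent reporter signal, 3 or more SD over negative controls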;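 further: score is relative to vehicle wells of the plate; 300 nL library stock went into each well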
Numbers without * were called inactive. The list is partial (hit frequency here may not be typical).

Compound | Bm FixLJ act
CS(=O)(=O)NC1CCN(C(=O)c2ccccc2-c2nc(-c3ccccc3)no2)CC1 | 0.55
COc1ccc(CNC(=O)c2ccc3c(c2)N(Cc2cc(C)ccc2C)C(=O)CS3)cc1 | -1.31
Clc1ccc(-c2cc3ncc4c(n3n2)-c2ccccc2OC4)cc1 | -0.17
CCOCCCn1c(SCC(=O)Nc2ccccc2Cl)nc2c(oc3ccccc32)c1=O | -1.93
COc1ccc(CNC(=O)Cc2coc3ccc(C)cc23)cc1 | 0.57
COc1cc2c(cc1CNC(=O)N(C)Cc1cscn1)CCC2 | 0.98
Cc1nc(N2CCC(CNC(=O)c3ccccc3-n3cccn3)CC2)sc1C | -0.38
Cc1cc(C)c2c(n1)nn1c(C)c(CCC(=O)NCc3ccc(Cl)cc3)c(C)nc21 | -1.79
CC1=CC2(CCN(C(=O)CCc3n[nH]c(C)c3C)CC2)OCC1 | -0.19
Cn1c(=O)c2c(ncn2CC(=O)Nc2cc(Cl)cc(Cl)c2)n(C)c1=O | -0.3
Cc1cccc(-n2c(=O)c3ccccc3n(Cc3ccc(F)cc3)c2=O)c1 | -2.06
CC(C)Nc1cc(N2CCN(C3CCCCC3)CC2)c2noc3c2c1C(=O)c1ccccc1-3 | -2.78
COc1ccc(N(CC(=O)NCCc2cccc(C)c2)S(=O)(=O)c2c(C)noc2C)cc1 | -2.31
CC1CCC(NC(=O)c2cc3c(Cl)nc4ccccc4c3s2)CC1 (stereo unspecified) | -0.17
CCC1CCCCN1C(=O)Cn1c(=O)n(CCCCCC(=O)NCc2ccc(F)cc2)c(=O)c2sccc21 (stereo unspecified) | 0.49
O=C(COc1ccccc1)Nc1sc2c(c1C(=O)Nc1ccccc1Cl)CCCCC2 | -2.37
CC(C)(C)c1ccc(C(=O)Nc2ccc(-c3nc4ccccc4o3)c(O)c2)cc1 | -1.04
CCOc1ccc(NC(=O)COc2ccc(S(=O)(=O)NC3CCCCC3)cc2)cc1 | -3.36
CCc1ccc(CNC(=O)c2ccc3c(Cl)c4c(nc3c2)CCCC4)cc1 | 0.43
O=C(CCS(=O)(=O)c1nc(-c2cccs2)cc(C(F)(F)F)n1)Nc1cc(Br)ccc1O | -1.83

The list goes on; the last five above are carried over.
Compound | Bm FixLJ act
O=C(COc1ccccc1)Nc1sc2c(c1C(=O)Nc1ccccc1Cl)CCCCC2 | -2.37
CC(C)(C)c1ccc(C(=O)Nc2ccc(-c3nc4ccccc4o3)c(O)c2)cc1 | -1.04
CCOc1ccc(NC(=O)COc2ccc(S(=O)(=O)NC3CCCCC3)cc2)cc1 | -3.36
CCc1ccc(CNC(=O)c2ccc3c(Cl)c4c(nc3c2)CCCC4)cc1 | 0.43
O=C(CCS(=O)(=O)c1nc(-c2cccs2)cc(C(F)(F)F)n1)Nc1cc(Br)ccc1O | -1.83
CNC(=O)C1CCC(CNC(=O)c2cc(O)ccc2C)CC1 (stereo unspecified) | -3.48
CCCC(CC(=O)O)NC(=O)N(C)Cc1cn[nH]c1-c1ccc(F)cc1 (stereo unspecified) | -0.57
Cc1ccccc1-c1nc(CN2CCC(C(=O)NCc3ccccc3Cl)CC2)c(C)o1 | -0.73
CCc1ccc(CN2CCCC(CNC(=O)c3cnn4cc(C)cnc34)C2)s1 (stereo unspecified) | 0.08
Cc1ccc2c(=O)cc(C(=O)Nc3sc4c(c3C(=O)NCC3CCCO3)CCCC4)oc2c1 (stereo unspecified) | 0.11
O=C1OC(c2ccc(O)cc2)(c2ccc(O)cc2)c2ccccc21 | -0.31
COc1ccc(OC)c(C2CC(=O)Nc3c2c(=O)[nH]c2ncnn32)c1 (stereo unspecified) | -1.06
CCC1=NOC(CNC(=O)Nc2cccc(-c3nnn(C)n3)c2)C1 (stereo unspecified) | 1.4
Cc1ccc(N2C(=O)c3n[nH]c(C)c3C2c2ccc(Cl)cc2)cc1 (stereo unspecified) | -2.8
COc1ccc(S(=O)(=O)NC2CNC(C(=O)O)C2)cc1Cl (stereo unspecified) | 1.55
O=C(Cc1ccc(Cl)cc1)Nc1ccc2oc(-c3ccccc3)nc2c1 | -0.02
Cc1ccc(S(=O)(=O)NC(c2cnn(C)c2)C2CC(O)C2)cc1F (stereo unspecified) | 0.28
Cc1ccc2oc3c(c(=O)c2c1)C(c1cccc(O)c1)N(CCCN1CCOCC1)C3=O (stereo unspecified) | 0.08
COCC1(N(C)C(=O)c2coc(COc3cccc(F)c3F)n2)CC1 | -0.14
NC(=O)c1cccnc1N1CCN(Cc2noc(C3CC3)n2)CC1 | -1.32
CCn1c(Cn2cccn2)nnc1C1CCN(CCN2CCCC2=O)CC1 | 0.6
O=C(C1CCCN(S(=O)(=O)c2cccc3nsnc23)C1)N1CCN(c2ccccc2)CC1 (stereo unspecified) | -0.69
CCCc1ccc(OC(C)c2nc(-c3ccc(-n4cccc4)cc3)no2)cc1 (stereo unspecified) | -2.46
COC(=O)c1ccc(NC(=O)CCc2c(C)nc3c(-c4ccccc4)c(C)nn3c2C)cc1 | -1.37
CCc1ccccc1NC(=O)N1CCCn2nc(C)cc21 | -0.51
CC(=O)OCC(=O)[C@@]1(O)[C@H](OC(C)=O)CC2C3CCC4=CC(=O)C=C[C@]4(C)[C@@]3(F)[C@@H](O)C[C@@]21C (stereo partly specified) | 0.3
COc1ccc(CNc2nc3c(-c4ccccc4)nnn3c3ccccc23)cc1 | -1.92
O=C(Cc1ccc(F)cc1)N1CCC(c2nc3c(nnn3Cc3ccc(F)cc3)c(=O)[nH]2)CC1 | -0.52
CC(=O)NC1CCN(C(=O)c2csc3nc(-c4ccc(Cl)cc4)cn23)C1 (stereo unspecified) | 0.72
CN1CCOC2(CCN(C(=O)c3cnc4ccccc4c3)CC2)CC1=O | 0.2
CC(C(=O)NC1CCCCC1)N1CCN(c2ccnc3nncn23)CC1 (stereo unspecified) | 1.04
COc1ccc(-c2cc(C(F)(F)F)n3nc(C(=O)Nc4sc5c(c4C#N)CCC(C)C5)cc3n2)cc1OC (stereo unspecified) | -0.16
COc1ccc(C)cc1NC(c1nnc(-c2ccccc2)o1)c1ccc(F)cc1Cl (stereo unspecified) | -0.09
O=C(c1ccco1)n1nc(-c2ccccc2)nc1NCc1ccc(Cl)cc1 | -0.38
CC1=C(C(=O)Nc2cccnc2)C(c2ccc(F)cc2)n2nc(SCc3ccccc3)nc2N1 (stereo unspecified) | -1.21
COc1ccc(OC)c(NC(=O)c2cnc(Nc3ccc(C)c(Cl)c3)c3ccccc23)c1 | 0.52
Cc1c(Cl)cccc1-c1ccc(/C=C(\C#N)c2nc3ccccc3[nH]2)o1 | -24
O=C(Nc1ccc(F)c(Cl)c1)C1CCCN(c2cnccn2)C1 (stereo unspecified) | -0.95
CNc1nnc(Cc2csc(NC(=O)c3c(OC)ccc(F)c3F)n2)s1 | 0.43
CC1CCN(S(=O)(=O)c2ccc3c(c2)c(=O)c(C(=O)N2CCN(c4cccc(Cl)c4)CC2)cn3C)CC1 | -0.81
CCC(=O)N1CCc2cc(S(=O)(=O)NC(CC(C)C)C(=O)NCc3cccc(OC)c3)ccc21 (stereo unspecified) | -1.6
Cc1cc(C)c(NC(=O)CN(c2ccccc2)S(=O)(=O)N(C)C)c(C)c1 | -0.76
CCCCc1ccc(-n2nc3ccc(NC(=O)c4cc5ccccc5o4)cc3n2)cc1 | 0.5
CC(C)COc1cccc(C(=O)Nc2ccc(-c3nc4ncccc4o3)cc2)c1 | 0.91
CCC[C@]1(C(=O)O)CN(S(=O)(=O)c2ccc(C)c(C)c2)CCC1O (stereo partly specified) | 0.48
Cc1cccc(-c2nc3c4ccccc4nc(NCc4ccc(Cl)cc4)n3n2)c1 | -0.76
CC(=O)c1ccc(NC(=O)N2CCCN(C(=O)C(F)(F)F)CC2)cc1 | -5.02
Cc1ccc2oc3c(c(=O)c2c1)C(c1ccc(F)cc1)N(Cc1ccc2c(c1)OCO2)C3=O (stereo unspecified) | 0.02
COc1ccccc1CNC(=O)C1CCN(c2nn3c(=O)cc(C)nc3s2)CC1 | -1.73
CCC(=O)N1CCc2cc(S(=O)(=O)CCC(=O)NCc3ccccc3Cl)ccc21 | -0.65
CCc1oc(C(=O)NCc2[nH]cc(C)c(=O)c2C)cc1CN(CC)CC | -0.41
CCOC(=O)C1CCCN(S(=O)(=O)c2ccc3c(c2)oc(=O)n3C)C1 (stereo unspecified) | -1.72
CCN1CCCC1CNC(=O)c1ccc(-c2ccccc2C(=O)N(C)C)cc1 (stereo unspecified) | -1.05
Cc1ccc(C(=O)CC2(O)C(=O)N(CCc3ccccc3)c3ccc(Cl)cc32)cc1 (stereo unspecified) | 2.42
CCOc1ccc(CCNC(=O)c2cc3c(=O)oc4ccc(C)cc4c3s2)cc1OCC | -0.54
Cc1ccc(-n2c3c(c(=O)[nH]c2=O)C(NC(=O)C(C)(C)C)(C(F)(F)F)C(=O)N3)cc1 (stereo unspecified) | -1.58
CCOC(=O)c1ccc(Nc2nc3ccc(C(=O)c4ccccc4)cc3n3c(C)nnc23)cc1 | -0.89
CCCCCn1c(=O)[nH]c2cc(C(=O)N3CCN(c4ccc(OC)cc4)CC3)ccc2c1=O | 0.85
CCN(CCn1cccn1)C(=O)Nc1ccc2nc(C)[nH]c2c1 | 0.42
CCOC(=O)c1ccc(N=C2SC(C(=O)Nc3ccccc3)CC(=O)N2C)cc1 (stereo unspecified) | 0.73
Cc1cccc(-n2c(/C=C/c3c[nH]c4ccccc34)nc3ccccc3c2=O)c1 | 0.64
CC(=O)OCC#CCSc1nnc(-c2cccc(Br)c2)o1 | -0.51
Cc1ccc(CNC(=O)c2ccc3c(c2)N(Cc2ccccc2Cl)C(=O)CS3)cc1 | 0.49
O=C(CSc1nc2cc3ccccc3cc2[nH]1)Nc1cccc(C(F)(F)F)c1 | 0.04
Cc1ccsc1CN(C(=O)c1oc2ccc(Br)cc2c1C)C1CCS(=O)(=O)C1 (stereo unspecified) | -0.34

Other structures:
Compound | Bm FixLJ act
CCCCN(C)CCNC(=O)c1ccc(Cn2c(=O)[nH]c3cc(OC)c(OC)cc3c2=O)cc1 | 1.2
CNC(=O)C1CCC(CNC(=O)c2ccc(F)cc2C)CC1 (stereo unspecified) | -1.22
Cc1nn(C)c(C)c1CN1CCC2(CC1)c1nc[nH]c1CCN2CC(C)C | 0.76
Cc1ccc(Cn2c(C)c(CNC3CCCCC3)c(C(=O)O)c2C)cc1 | -1.25
COc1ccc(N2CCN(C(=O)CSc3c4c(nc5ccc(Cl)cc35)CCCC4)CC2)cc1 | -1.27
Cc1nccn1Cc1nnc(C2CCCN(C(=O)c3cccnc3)C2)n1C (stereo unspecified) | 0.48
CCN(CC)CC#CCOC(=O)C(O)(c1ccccc1)C1CCCCC1 (stereo unspecified) | -0.73
COc1cccc(C(=O)NC2=NC(c3ccc(N(C)C)cc3)CC(=O)N2)c1 (stereo unspecified) | -0.04
Cc1[nH]nc(C(=O)N2CCOCC(CN(C)C)C2)c1Cl (stereo unspecified) | 0.17
O=C(NCCn1cc(SCc2ccc(Br)cc2)c2ccccc21)c1cccs1 | 1.99
COC(=O)c1cc2oc3ccccc3c2n1Cc1cccc(C)c1 | -0.3
CCOc1ccc(NC(=O)Cn2c(=O)n(CC3CCCO3)c(=O)c3ccccc32)cc1 (stereo unspecified) | -1.88
CCOc1ccccc1C(=O)N1CC(=O)Nc2ccc(Cl)cc2C1c1ccccc1 (stereo unspecified) | -1.62
COc1ccc(-c2noc(CSc3nc(C)cc(=O)[nH]3)n2)cc1OC | -1.97
CC1=C(/C=C/C(C)=C/C=C/C(C)=C/C(=O)Nc2ccc(O)cc2)C(C)(C)CCC1 | -1.58
Cc1cc(N2CCCCC2)nc2ccc(NC(=O)/C=C/c3ccccc3OC(C)C)cc12 | 0.01
N#CC1(c2ccccc2)CCN(Cc2noc(C3CCCC3)n2)CC1 | -0.56
CCOCCCNC(=O)c1c[nH]c2ccc(S(=O)(=O)Nc3cccc(Cl)c3C)cc2c1=O | -1.26
COc1ccc(OC)c(NC(=O)Nc2c(C)n(C)n(-c3ccccc3)c2=O)c1 | -1.25
COc1ccc(NC(=O)CSc2nc(-c3ccco3)cc(C(F)(F)F)n2)c(OC)c1 | -0.67
O=C(NCc1ccc(F)cc1)c1ccc(Nc2nc3ccccc3n3nnnc23)cc1 | -0.57
Cc1ccc(NC(=O)C2CCN(S(=O)(=O)c3c(C)noc3C)CC2)cc1 | 0.26
CCOc1ccccc1NC(=O)C(NS(=O)(=O)c1ccc2c(c1)CCC(=O)N2)c1ccccc1 (stereo unspecified) | -1.37
CCSc1ncc(Cl)c(C(=O)Nc2ccc(S(=O)(=O)N3CCCCC3)cc2)n1 | 0.05
CCCCN(CC)C(=O)Cn1c(=O)n(-c2ccc(OCC)cc2)c(=O)c2c3c(sc21)CCC3 | -1.59
Cc1cccc(NS(=O)(=O)c2ccc3c(c2)CCN3C(=O)CCC(=O)O)c1C | -0.01
CCOc1ccc(CCNC(=O)C2=C(C)C(=O)OC23CCC(C)CC3)cc1OCC (stereo unspecified) | -1.86
CCOc1cccc(NC(=O)CSc2ncc(-c3ccc(Cl)cc3)[nH]2)c1 | 0.56
Cn1cnnc1C1CCN(C(=O)NCc2cc(-c3cccc(F)c3)no2)CC1 | -1.28

Four structures already listed, sorted by length of the SMILES, smallest number first.
Compound | Bm FixLJ act
CCOc1cccc(NC(=O)CSc2ncc(-c3ccc(Cl)cc3)[nH]2)c1 | 0.56
O=C(NCc1ccc(F)cc1)c1ccc(Nc2nc3ccccc3n3nnnc23)cc1 | -0.57
CCSc1ncc(Cl)c(C(=O)Nc2ccc(S(=O)(=O)N3CCCCC3)cc2)n1 | 0.05
CCCCN(CC)C(=O)Cn1c(=O)n(-c2ccc(OCC)cc2)c(=O)c2c3c(sc21)CCC3 | -1.59

Screens from PubChem BioAssay.
